AID504770 = E. coli YBA685 growth inhibition, screen for V. cholerae RctB inhibitors | E. coli YBA685 rctB-dependent plasmid, OD600 growth, 3 h; stronger effect = lower value | z-score (test concentration not listed) | actives 0.27% (n = 130,000) | AID 504770;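 active = z-score under -2 on both plates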;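 note: wells of about 30 µL received 100 nL stock; score is relative to mean and SD of the test wells; the first replicate is given; strong numbers were not always called active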
CapD inh = inhibitors of Bacillus anthracis CapD enzyme; purified CapD enzyme, fluorescence intensity read-out; stronger effect = lower value; some hits fall short of the stated cut; z-score (no concentration beside the values); actives 0.23% (n = 140,000);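 active = z-score under -4 in either of two replicates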;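 note: stock transfer was 100 nL into about 40 µL; score is relative to mean and spread of the plate; one replicate is shown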
Active calls of the source: *; . = no result given. The order is random; 0.37% or so of the library scored in one or more.

canonical_smiles | AID504770 | CapD inh
CCOC(=O)c1sc(C)c2c1NC(c1ccc(N(C)C)cc1)NC2=O (stereo not given) | -0.4 | -0.21
CC(C)(C)C1=Nn2c(nnc2-c2ccccc2)SC1 | -0.4 | -0.55
C=CCNC(=S)NN=C1CCCCCC1 | -0.1 | .
CCCCn1ccnc1C(=O)c1cccc(S(=O)(=O)N2c3ccccc3CC2C)c1 (stereo not given) | 0.25 | .
O=c1ccc2cc(S(=O)(=O)N3CCC(c4c[nH]c5ccccc45)CC3)ccc2o1 | . | -0.07
CC(C)C(C)NC(=O)CSc1nnc(COc2ccccc2Cl)o1 (stereo not given) | -1.4 | .
Cc1ccc(N=C2NN=C(c3ccccc3)C(C(=O)Nc3ccc4c(c3)OCO4)S2)cc1 (stereo not given) | 1.1 | .
Cc1ccccc1NC(=O)C(NS(=O)(=O)c1ccc2c(c1)c(=O)n(C)c(=O)n2C)c1ccccc1 (stereo not given) | -0.8 | 0.39
Cc1ccc(CSc2nc3ccccc3c(=O)n2-c2ccc(C(=O)N3CCOCC3)cc2)cc1 | 0.6 | 0.35
CC(C)(C)c1ccc(CNc2ccccn2)cc1 | 2.5 | 0.77
CN1C2CCC1CC(NC(=O)Cc1ccccc1F)C2 (stereo not given) | -0.25 | 0.38
O=C(COC(=O)Cc1cccc2ccccc12)Nc1ccc2[nH]c(=O)[nH]c2c1 | -0.35 | .
O=C(NCCc1ccccc1)c1ccccn1 | -0.7 | .
N#Cc1c(NC(=O)CN2C(=O)CCC2=O)sc2c1CCCC2 | -0.45 | -0.21
CCOc1ccc(NCC(=O)Nc2ccc(F)cc2)cc1 | -0.5 | -0.23
Cc1ccc(-c2cc(C(=O)OCCn3c(C)csc3=O)c3ccccc3n2)o1 | -0.5 | .
COCCNC(=O)Cn1cc(S(=O)(=O)N2CCN(c3ccccc3F)CC2)c2ccccc2c1=O | 0.85 | -0.34
COc1cc(Br)cc(/C=N\NC(=O)Cc2c[nH]c3ccccc23)c1O | . | 0.49
COC(=O)Cc1c(-c2ccccc2)c2cc(C)ccc2[nH]c1=O | -0.25 | 1.8
Cn1nc(C(F)(F)F)c(CO)c1Sc1ccc(Br)cc1 | . | 0.18
Cc1nc2ccccc2c(=O)n1/N=C1\C(=O)N(C)c2ccccc21 | -0.45 | .
CN1/C(=C\C(=O)CSc2nncn2-c2ccccc2)C(C)(C)c2ccccc21 | -0.05 | .
CCOc1ccc(NC2=NC(C(=O)Nc3ccccc3)CC(=O)N2)cc1 (stereo not given) | 1.9 | -0.27
CCOC(=O)c1c(C)csc1NC(=O)Nc1c(-c2c(Cl)cccc2Cl)noc1C | . | 0.15
c1ccc(OCCSc2nnnn2-c2ccccc2)cc1 | -0.8 | -0.17
CCOC(=O)c1cc(-c2ccccc2)n(-c2ccc(N)cc2)c1C | 0.65 | 0.39
COc1cccc(C2NC(=O)c3ccccc3N2)c1OC (stereo not given) | . | 106
COc1ccc(-c2nn(-c3ccccc3)cc2C2NC(=O)NC(C)=C2C(=O)OC(C)C)cc1 (stereo not given) | . | 0.56
CCOC(=O)c1cc(CN2CCOCC2)c(C)o1 | -0.35 | 0.26
COCc1c(C(=O)OCCCCN2C(=O)c3ccccc3C2=O)oc2ccccc12 | -0.3 | .
C=CCn1c(N)c(C(=O)NCc2ccccc2)sc1=S | -0.45 | 6.7
CC1CCc2c(sc(NC(=O)CSc3nnc4n3CCCCC4)c2C(N)=O)C1 (stereo not given) | -2 | .
CC1(C)C(N(O)C(=O)NC2CCCCC2)N(C2CCCCC2)C(=O)N1CCC(=O)NN (stereo not given) | . | -0.14
N#Cc1ccccc1Cn1c(=O)c2c(ncn2Cc2ccccc2)n(Cc2ccccc2)c1=O | 1.2 | .
Cc1ccccc1NC1(C#N)CCCCC1 | -0.05 | 0.38
O=C(NNC(=O)c1ccccc1-n1cccc1)OCc1nccn1Cc1ccccc1 | . | -0.12
O=C(CC1CCCC1)Nc1nc2ccccc2[nH]1 | -0.35 | .
COC(=O)c1cc(-c2ccc(OC)cc2)cs1 | . | 0.64
C=C(C)C(=O)NC1=NN(c2ccccc2)C(=O)C1 | -0.85 | -0.34
c1cnc(Oc2ccc(-n3cccc3)cc2)nc1 | 0.05 | -0.21
O=S(=O)(CCS(=O)(=O)c1ccc(Cl)cc1)c1ccccc1 | -0.15 | 0.97
CCOc1ccc(-c2[nH]nc3c2C(c2ccc(Cl)cc2)C(C#N)=C(N)O3)cc1OC (stereo not given) | . | 0.72
O=c1cc(N2CCOCC2)[nH]c(=O)n1C1CCCCC1 | -0.15 | 0.39
COC(=O)C1C2C=CC3(CN(C(C)C)C(=O)C13)O2 (stereo not given) | 0.6 | -0.065
N#Cc1ccc(OCC(=O)NCC2(N3CCCCC3)CCCCC2)cc1 | -2 | .
O=[N+]([O-])c1c(NCCO)cc(N2CCN(c3ccccc3)CC2)c2nonc12 | . | -1
CC1(C)CC(=O)C2=C(C1)OC1=C(C(=O)CC(C)(C)C1)C2c1ccc(Br)cc1 | . | 0.23
COc1ccc(-c2nc3ccccc3c(=O)o2)cc1OC | -0.3 | 0.95
COc1ccccc1NC(=O)c1ccc2c(=O)n(Cc3cccc(Br)c3)c(=S)[nH]c2c1 | . | 0.45
NC(=S)c1cncnc1N | . | -0.82
Cc1occc1C(=O)Nc1sccc1C(N)=O | -0.5 | 6.8
Cc1cc(-c2csc(CC#N)n2)c(C)n1C1CC1 | -0.3 | .
N#C/C(=C(/O)CN1CCN(S(=O)(=O)c2ccc(Cl)cc2)CC1)c1nc2ccccc2[nH]1 | 0.05 | .
COc1cc([N+](=O)[O-])cc2c1NC(c1ccc(Br)cc1)C1CC=CC21 (stereo not given) | . | -0.94
Cc1cc(C(=O)Cn2c(CO)nc3ccccc32)c(C)n1C | -0.2 | .
CC(=O)Nc1ccc(/C=C(\C#N)C(=O)NC2CCCCC2)cc1 | -0.05 | .
Cc1ccc(-c2ccc(=O)n(CCC(=O)NCCN3C(C)CCCC3C)n2)cc1 (stereo not given) | -0.05 | 0.54
Nc1cc(-c2ccccc2)c2ccccc2n1 | -2.2* | 42
FC(F)(F)c1cc(-c2cccs2)nc(=S)[nH]1 | -1.7 | 2.1
Cc1cc(C)nc(Nc2ccccc2O)n1 | -0.1 | -0.05

Pulled one by one from the entries so far (seven):
canonical_smiles | AID504770 | CapD inh
Cc1occc1C(=O)Nc1sccc1C(N)=O | -0.5 | 6.8
COc1cc([N+](=O)[O-])cc2c1NC(c1ccc(Br)cc1)C1CC=CC21 (stereo not given) | . | -0.94
N#Cc1ccc(OCC(=O)NCC2(N3CCCCC3)CCCCC2)cc1 | -2 | .
Nc1cc(-c2ccccc2)c2ccccc2n1 | -2.2* | 42
CCOc1ccc(-c2[nH]nc3c2C(c2ccc(Cl)cc2)C(C#N)=C(N)O3)cc1OC (stereo not given) | . | 0.72
Cc1cc(-c2csc(CC#N)n2)c(C)n1C1CC1 | -0.3 | .
Cc1cc(C(=O)Cn2c(CO)nc3ccccc32)c(C)n1C | -0.2 | .

Carrying on.
canonical_smiles | AID504770 | CapD inh
N#C/C(=C1\CCCCCN1)c1nc2ccccc2[nH]1 | -1.1 | .
CCn1c(CNc2nc(-c3ccccc3)cs2)nnc1SCC(=O)c1ccc(OC)cc1 | 1.9 | .
COc1cccc(C(=O)Nc2ccccc2-c2nc3ccccc3[nH]2)c1 | . | 1.1
CC(C)c1oc2cc(O)ccc2c(=O)c1-c1nc2ccccc2n1C | -0.35 | 10
CCCCCC#CCOC(=O)NNC(=O)c1ccc(OC)cc1 | . | -0.09
O/N=C1/CCCCC1Cn1ccnc1 (stereo not given) | -0.65 | 1.4
CCOC(=O)c1ccoc1CSc1nnc(Nc2ccc(C)cc2)s1 | -1.9 | .
CCC(=O)Nc1ccc(-c2nc3ccc(OC(=O)CC)cc3c(=O)o2)cc1 | 0.1 | 2.7
CCn1cc(C(=O)O)c(=O)c2cc(S(=O)(=O)N(C)C)ccc21 | 0 | -0.57
O=C(NC(=S)Nc1ccccc1O)C1CCCCC1 | 1.5 | .
CCc1nnc(NC(=O)[C@@H](NC(=O)c2cccc(S(=O)(=O)N(CC)CC)c2)C(C)C)s1 | -2.3 | .
CN1C(=O)CC(C(=O)Nc2ccc(Br)cc2)SC1=Nc1cccc(F)c1 (stereo not given) | . | 0.31
CCc1ccc(-c2ccc(C(=O)NCc3ccccc3OC(F)(F)F)cc2)cc1 | . | 0.21
O=C(c1ccccc1)N(Cc1nnc(-c2ccc(Cl)cc2)o1)C1CC1 | -0.65 | .
OC(CSc1ccc(Cl)c(Cl)c1)(c1ccccc1)c1ccccc1 | . | -0.095
CN(Cc1ccc(Cl)c(Cl)c1)c1ccc(S(N)(=O)=O)cn1 | -0.2 | .
O=C(COC(=O)c1n[nH]c2ccccc12)NCC1CCCCC1 | 1.6 | .
CN=C1SC(CC(=O)Nc2ccccc2F)C(=O)N1/N=C/c1ccc(O)c(OC)c1 (stereo not given) | -1.2 | .
COc1ccc(OC)c(C(=O)c2oc3ccc(Br)cc3c2N)c1 | . | -0.99
CN1CCN(Cc2nc(/C=C/c3cc(C(F)(F)F)cc(C(F)(F)F)c3)no2)CC1 | 0.2 | 0.33
Cc1cccc(CSc2nc3c(cnn3-c3ccc(Cl)cc3)c(=O)[nH]2)c1 | -0.15 | 0.47
CC(C)Sc1nc2ccccc2n1CN1CCN(c2ccccn2)CC1 | -0.05 | .
CCN(CC)S(=O)(=O)c1ccc(NC(=O)c2ccccc2)cc1 | -0.8 | .
COc1ccccc1NC(=O)CSCc1nc2ccccc2c(=O)n1-c1ccccc1Cl | . | -0.42
O=c1c2cnn(CCO)c2ncn1Cc1cccc2ccccc12 | 2.1 | .
CCOC(=O)c1c(CN2CCCCC2)n(C)c2ccc(OC)c(S(=O)(=O)c3ccccc3)c12 | . | 1.2
CCc1ccc(NC(=O)c2cc3c(s2)-c2ccccc2S(=O)(=O)C3)cc1 | -1 | 0.28
CCOC(=O)c1cn(CC2CC2)c2cc(F)c(F)cc2c1=O | 2.5 | .
CCOC(=O)c1cnn(-c2ccc(F)cc2)c1N | . | 0.41
O=C(NC(=O)c1c(F)cccc1Cl)Nc1ccccc1N1CCCCC1 | . | -0.32
O=C(Nc1cnn(C23CC4CC(CC(C4)C2)C3)c1)c1cc(-c2ccccc2)on1 | 0.5 | .
O=C(O)CCc1nc(=S)[nH][nH]1 | -0.5 | -0.17
CCC[N+]1(C)CCC2C(C1)c1ccccc1N2Cc1ccccc1 (stereo not given) | 1.6 | -1.4
C(=N\n1cnnc1)/c1ccccc1 | -0.15 | 0.41
CC1CCc2[nH]c3ccc(C(=O)O)cc3c2C1 (stereo not given) | -0.15 | -0.66
O=C(CSc1ncccc1C(=O)OCCN1C(=O)c2ccccc2C1=O)Nc1ccc2c(c1)OCO2 | 0.85 | .
CC(C)(C)CC(=O)NCc1ccc(S(N)(=O)=O)cc1 | -0.35 | 0.21
O=C(c1cc2c(s1)-c1ccccc1OC2)N(Cc1ccco1)C1CCCCC1 | -1 | 101
O=c1cc(CCl)c2cc3c(cc2o1)CCC3 | 0 | 0.57
O=C(Nn1c(-c2ccccc2F)nc2ccccc2c1=O)c1cc2ccccc2oc1=O | . | 3.1

Of the compounds above, these have a nitro group on carbon.
canonical_smiles | AID504770 | CapD inh
O=[N+]([O-])c1c(NCCO)cc(N2CCN(c3ccccc3)CC2)c2nonc12 | . | -1
COc1cc([N+](=O)[O-])cc2c1NC(c1ccc(Br)cc1)C1CC=CC21 (stereo not given) | . | -0.94

Continuation:
canonical_smiles | AID504770 | CapD inh
CC(C)CC1(C)NC(=O)N(CC(=O)c2ccc(Cl)s2)C1=O (stereo not given) | -0.5 | .
O=C(OCc1ccc2ccccc2c1)c1ccco1 | -0.15 | 0.095
COc1ccccc1N1CCN(C(=O)c2ccc(Cl)cc2)CC1 | -0.45 | 0.095
O=C1/C(=C/c2cccc(F)c2)CS/C1=C\c1cccc(F)c1 | -0.8 | 8
Cc1ccc(N=C2NC(=O)C(Cc3ccccc3Cl)S2)cc1 (stereo not given) | . | -0.4
O=C(Nc1ccccc1)OCCOc1cc(C(F)(F)F)ccn1 | -0.8 | -0.12
CCOC(=O)CSc1nc2c(sc(=S)n2-c2ccccc2OC)c(=O)n1Cc1ccco1 | . | -0.36
CCCCN(CCCC)S(=O)(=O)c1ccc2c(c1)C(=NO)c1cc(S(=O)(=O)N(CCCC)CCCC)ccc1-2 | . | 0.62
COc1ccc(C(=O)NNC(=O)c2ccccc2OC)cc1OC | . | -0.07
O=S(=O)(NCC1CCCO1)c1cccc2cccnc12 (stereo not given) | -0.85 | 0.24
O=C(NCc1ccncc1)C1CCN(C(=O)c2cccc(Cl)c2)CC1 | -0.1 | .
COc1ccc(N=Cc2ccc(N(C)CCC#N)cc2)cc1 | -0.5 | -1.6
N#Cc1ccc(NC(=O)CCCc2ccccc2)cc1 | -1 | 0.42
CCn1c2ccccc2c2cc(C#N)ccc21 | -0.2 | 30
CC1(C(=O)O)CC1(C)C(=O)O (stereo not given) | 0.05 | -0.32
CCCCN(C)C(=O)c1[nH]c2ccccc2c1Sc1ccc(Cl)cc1 | 0.15 | -0.26
CCOC(=O)c1ccc(N2C(=O)C3C(c4ccccc4F)OC4(C(=O)c5ccccc5C4=O)C3C2=O)cc1 (stereo not given) | . | 0.14
CC(C(=O)NNC(=O)OCc1c(F)cccc1Cl)n1nnc(N2CCOCC2)n1 (stereo not given) | . | -0.33
COc1cc([N+](=O)[O-])ccc1NC(=O)CSc1n[nH]c(N)n1 | . | -1.6
CCOC(=O)c1ccc(NC(=O)CSc2nc3ccccc3c(=O)n2CCCC(=O)NCCc2ccccc2)cc1 | . | -1.5
Cc1nn(-c2ccccc2)c2[nH]c(=O)cc(CCl)c12 | 0 | -0.17
C=CCn1c(C)cc(C(=O)COC(=O)c2cncc(Br)c2)c1C | 0.05 | .
O=C(O)C1NCCc2ccccc21 (stereo not given) | 0.15 | 0.62
CC(=O)Oc1ccc(-c2nc3ccccc3s2)cc1 | -0.4 | 16
